Screening data deposited in PubChem BioAssay by National Center for Advancing Translational Sciences (NCATS).
Vaccinia Venus = inhibitors of vaccinia virus (Venus reporter); 330,000 compounds, 0.46% hits; AID 720580; Vaccinia virus Venus reporter expression, fluorescence; Potency, µM (highest dose often 36.5 µM), without a hit: top-dose activity change, negative = inhibition, most hits filed as inhibitors; active means well fitted inhibition curve with a large enough effect; inconclusive means small, poorly fitted or top-dose-only effect; inactive means no such curve, though single readings can be large or run the other way; tested in A549 cells; note: nearly all actives have a fitted effect of over 30% in size; inactives centre near -10
Vaccinia mCherry = vaccinia inhibition (mCherry reporter); Potency, µM (highest dose often 36.5 µM), inactives show at the highest dose activity change, negative = inhibition, usual class: inhibitors; 310,000 compounds, 0.63% hits; Vaccinia virus mCherry reporter infection, fluorescence; about a quarter of the inactives have no number; active = well fitted inhibition curve with a large enough effect; inconclusive = small, poorly fitted or top-dose-only effect; inactive = no such curve, though single readings can be large or run the other way; tested in A549 cells; note: nearly all actives have a fitted effect of over 35% in size; inactives centre near -10
* hit, by the source's call; i = inactive; u = inconclusive; x = no result given; & = joins results of further samples; [ ] = remark or other dose. % is set by controls: 0 for no effect and ±100 for the full control effect; potency is the fitted concentration of half-maximal effect.

item	SMILES	Vaccinia Venus	Vaccinia mCherry
1	CCn1c(CC(=O)Nc2ccccc2)nnc1SCC(=O)Nc1ccccc1C(=O)OC	-14%	-18%
2	COc1cccc(CC(=O)OCC(=O)NC2(C#N)CCCCC2)c1	-9%	i
3	CCN(C(=S)NCc1ccccc1)c1cccc2ccccc12	-14%	-16%
4	Cc1cc(N2CCCCCC2)nc(-c2ccccc2O)n1	-27%	x
5	COc1cc(CNc2ncnc3c2ncn3[C@H]2CN(CCN3CCOCC3)C[C@@H](CO)O2)cc(OC)c1OC	-4%	-2%
6	COc1ccc(C2Nc3ccccc3C(=O)N2NS(=O)(=O)c2ccc(C)cc2)cc1 (configuration not stated)	u	u
7	CN1CCN(c2nc3c(c(=O)[nH]c(=O)n3C)n2CC(N)=O)CC1	-11%	-6%
8	O=C(CC1N=C2c3ccccc3N=C(SCc3ccc(F)cc3)N2C1=O)NCc1cccs1 (configuration not stated)	-4%	-18%
9	C=C1c2ccccc2NC(=S)N1Cc1ccc2c(c1)OCO2	-1%	-6%
10	CCCCCCCC/C=C\C/C=C\C/C=C\CCCC(=O)NCCO	-17%[3.33 µM]	i[3.33 µM]
11	O=C1CN(C(=O)c2ccc(S(=O)(=O)N3CCCC3)cc2)C(c2ccc(F)cc2)c2cc(Br)ccc2N1 (configuration not stated)	-11%	-22%
12	OC1CCN(C(=S)Nc2ccc(Nc3ccccc3)cc2)CC1	-11%	-12%
13	COc1ccccc1C#Cc1cnc2c(c1)C(=O)N([C@H](C)CO)C[C@@H](C)[C@@H](CN(C)C(=O)c1ccc3c(c1)OCO3)O2	-26%	-1%
14	O=C(c1ccc(-n2cccc2)cc1)N1CCOCC1	-12%	-4%
15	C[C@@H](NC(=O)c1nc[nH]c1C(=O)N1CCc2ccccc2C1)c1ccccc1	-12%	u

Next section (six carried over from the part before).
item	SMILES	Vaccinia Venus	Vaccinia mCherry
10	CCCCCCCC/C=C\C/C=C\C/C=C\CCCC(=O)NCCO	-17%[3.33 µM]	i[3.33 µM]
11	O=C1CN(C(=O)c2ccc(S(=O)(=O)N3CCCC3)cc2)C(c2ccc(F)cc2)c2cc(Br)ccc2N1 (configuration not stated)	-11%	-22%
12	OC1CCN(C(=S)Nc2ccc(Nc3ccccc3)cc2)CC1	-11%	-12%
13	COc1ccccc1C#Cc1cnc2c(c1)C(=O)N([C@H](C)CO)C[C@@H](C)[C@@H](CN(C)C(=O)c1ccc3c(c1)OCO3)O2	-26%	-1%
14	O=C(c1ccc(-n2cccc2)cc1)N1CCOCC1	-12%	-4%
15	C[C@@H](NC(=O)c1nc[nH]c1C(=O)N1CCc2ccccc2C1)c1ccccc1	-12%	u
16	CC(C(=O)Nc1ccc(N(C)C)cc1)N1C(=O)c2ccccc2S1(=O)=O (configuration not stated)	-4%	-11%
17	COc1ccc(C(=O)CSc2nnc(NC(=O)C3CC(=O)N(c4ccccc4C)C3)s2)cc1 (configuration not stated)	-7%	-4%
18	COc1ccccc1N1CCN(C(=O)CCc2ccc(S(=O)(=O)NCC(C)C)cc2)CC1	-12%	-20%
19	Cc1nc2ccc(S(=O)(=O)NC(C(=O)Nc3nccs3)C(C)C)cc2s1 (configuration not stated)	-3%	i
20	CC(C)CSc1nc2c(=O)[nH][nH]c(=O)c2n1Cc1ccccc1	-12%	-13%
21	O=C(O)COc1ccccc1	-8%	i
22	O=C(COc1ccccc1)N1CCN=C1SCc1cccnc1	0%	i
23	CCOC(=O)c1cc(-c2ccccc2)n(CCC(=O)Nc2nc3c(C)cccc3s2)c1C	-19%	-25%
24	Nc1[nH]c(C(=O)c2ccccc2)c(-c2ccc(Cl)c(F)c2)c1C(=O)NCCc1c[nH]c2ccccc12	-8%	-13%
25	COc1ccc(Cn2nc(C)cc2C)cc1OC	-15%	-13%
26	CCC(=O)Nc1cc2c(cc1Cl)-c1ccccc1C2	-12%	-25%
27	CCCC(=O)NC(C)c1nc2ccccc2[nH]1 (configuration not stated)	4%	-9%
28	COc1cc(/C=N/NC(=O)c2cccnc2)ccc1OCC(=O)N1CCOCC1	-11%	i
29	CCC1(CC)Cc2ccccc2-c2nc(NN)[nH]c(=O)c21	-16%	u
30	CC1CCN(C(=O)c2cc3c(=O)n4ccccc4nc3s2)CC1	8%	5%
31	Cc1cc(C)c2c(n1)SCC(=O)N2CC(=O)Nc1c(C)cccc1C	3%&-1%	-6%
32	CCOC(=O)C1CCN(C(=O)C2CCN(S(=O)(=O)c3cc(Cl)ccc3OCC)CC2)CC1	-19%	-5%
33	CCOC(=O)c1cc(-c2cccc([N+](=O)[O-])c2)nc2[nH]c(=O)[nH]c(=O)c12	-12%	i
34	O=C(O)c1ccc(CSc2nnc(-c3ccncc3)n2-c2ccc(Cl)cc2)cc1	0%	-13%
35	COc1cccc(C2CC(=O)Nc3c2c(=O)n(C)c(=O)n3C)c1OC (configuration not stated)	-12%	i
36	O=C(Nc1cccc(-c2nc3cc(Cl)ccc3o2)c1)c1ccc(F)cc1	-1%	-10%
37	COC(=O)c1ccc2c(=O)n(CCCCCC(=O)NCCNC(C)=O)c(=O)[nH]c2c1	-8%	i
38	COc1ccc(OCC(=O)Nc2c3c(nn2-c2ccccc2)CS(=O)(=O)C3)cc1	-5%	-1%
39	O=Cc1cn(CC(=O)Nc2ccc3c(c2)OCO3)c2ccccc12	-12%	-10%
40	O=C(c1ccc([N+](=O)[O-])cc1)N1CCc2ccccc2C1	-19%	-3%
41	CCOC(=O)c1ccc(-c2c(-c3ccccc3OC)sc3cc4c(cc23)OCO4)cc1F	-18%	i
42	O=S(=O)(c1cc(Cl)cc(Cl)c1)N1Cc2cc(-c3ccccc3)ccc2-n2nncc2C1	-12%	i
43	COCCNC(=O)c1cc(-c2ccccc2C)nn1CC1CC(c2cccnc2)=NO1 (configuration not stated)	-17%	i
44	COc1ccccc1CNC(=O)CN1C(=O)c2ccccc2S1(=O)=O	-6%	u
45	O=C(Cc1ccc([N+](=O)[O-])cc1)N1CCN=C1SCc1ccccc1	-11%	i
46	Cc1c(C(=O)N(C)C)sc2c1c(=O)n(-c1ccc(Cl)cc1)c(=O)n2Cc1ccccc1F	-11%	-10%
47	CCc1nc2c(OCC3COc4ccccc4O3)cccn2c1N(C)C(=O)c1ccc(OC)cc1 (configuration not stated)	u	-5%
48	O=C(NCCc1ccccc1)C1CCN(S(=O)(=O)N2CCOCC2)CC1	-17%[7.34 µM]	-3%[7.34 µM]
49	CCCCCCCCCCCCCCCCOCC(CO)OC(C)=O (configuration not stated)	-7%[3.33 µM]	-13%[3.33 µM]
50	Cc1cc(=O)[nH]c(SCC(=O)Nc2ccc3c(c2)OCCO3)n1	-2%	-16%
51	CCc1ccccc1Nc1nc2ccccc2n1CC	-3%	-15%
52	CCOCCOC(=O)c1[nH]c2c(c1C)C(=O)CC(c1ccccc1)C2 (configuration not stated)	u	-15%
53	COC(=O)CCNC(=O)NC(CCC(C)C)c1c(-n2cccc2)sc2c1CCN(C)C2 (configuration not stated)	3%	-13%
54	N#Cc1ccc(S(=O)(=O)NC2CCCCNC2=O)cc1 (configuration not stated)	-4%	-6%
55	CN1CCCCC1c1cccnc1 (configuration not stated)	-9%	-15%
56	COc1ccc(NC(=O)CN2c3cccc4cccc(c34)S2(=O)=O)cc1OC	-13%	-14%
57	CCOC(=O)C1C(C(C)=O)=C(c2ccccc2)c2ccccc2N1S(=O)(=O)C(F)(F)F (configuration not stated)	-14%	-5%
58	Cn1cnc([N+](=O)[O-])c1S(=O)(=O)Nc1ccccc1	-22%	i
59	O=C(COC(=O)c1cnc(Cl)c(Cl)c1)Nc1cccc(S(=O)(=O)N2CCOCC2)c1	-7%	-1%
60	O=C(COc1ccc(Cl)cc1)NCc1nnc(SCC(=O)NCc2ccc3c(c2)OCO3)o1	-20%	0%
61	CCCOC(=O)C1=C(C)NC(=O)NC1c1cc2c(cc1Br)OCO2 (configuration not stated)	-20%	-28%
62	O=C(CNC(=O)c1cccs1)Nc1ncccc1O	-2%	-28%
63	CCC(C)NS(=O)(=O)c1ccc(NC(=O)Cc2ccc(OC)cc2)cc1 (configuration not stated)	-16%	-19%
64	COc1cccc(C(=O)NNC(=O)c2cccc(F)c2)c1	0%	-8%
65	COc1ccc(C(c2nnnn2C2CCCCC2)N2CCN(c3ccc(OC)cc3)CC2)cc1 (configuration not stated)	-29%	x
66	Cc1cc(OCC(=O)Nc2ccccc2N2CCCCC2)ccc1C(C)C	-1%	-6%
67	Cc1cc(C)n2c(SCC(=O)Nc3cccc(S(N)(=O)=O)c3)nnc2n1	-4%	i
68	C=CC[N+]1(C)CC[C@]23c4c5ccc(O)c4O[C@H]2C(=O)CC[C@@]3(O)[C@H]1C5 (some centres not stated)	-12%	-14%
69	O=C1NC(=O)C(=Cc2ccc(N3CCOCC3)cc2)C(=O)N1	-4%	i
70	CCC(C)C(N)C(=O)NC(CCC(=O)OCc1ccccc1)C(N)=O (configuration not stated)	-6%	-1%[1.46 µM]
71	Cc1ccc(C(=O)NCC2CCCO2)o1 (configuration not stated)	-1%	-12%
72	O=C(NN=C1CCCC1)c1cc(-c2ccccc2)n[nH]1	-15%	-13%
73	O=C(/C=C/CCc1ccc2c(c1)OCO2)N1CCCCC1	3%	-7%
74	C#CCNC(=O)C1=C[C@@H](c2ccc(C(F)(F)F)cc2)C[C@@H](OCCCCO)O1	-18%	i
75	O=C(O)CSc1ccc2nnc(-c3cccnc3)n2n1	-12%&-11%	-13%

Values by screen from above:
Compounds 61 to 72 in Vaccinia mCherry, in turn: -28%, -28%, -19%, -8%, x, -6%, i, -14%, i, -1%[1.46 µM], -12%, -13%

Other records.
item	SMILES	Vaccinia Venus	Vaccinia mCherry
76	Cc1ccc(S(=O)(=O)N2CCN(C)CC2)c(C)c1N(C)S(=O)(=O)c1ccc(Cl)cc1	-29%	x
77	CCn1c(CC(=O)Nc2ccccc2)nnc1SCC(=O)NC1=NCCS1	-15%	-12%
78	CC1(C)C(=O)OC(c2cccs2)C2(CCCCC2)C1=O (configuration not stated)	-15%	-15%
79	C/C(N)=C(/C#N)C(=O)CSc1nc2ccccc2c(=O)n1-c1ccc(C)c(Cl)c1	-9%	-15%
80	Cn1nnnc1SCc1ccc(F)cc1	u	x
81	Cc1nnc(NC(=O)c2cccc(NC(=O)C(C)C)c2)s1	-7%	x
82	CN(C)c1cccc(NC(=O)c2ccco2)c1	1%	i
83	CCOC(=O)C1CCN(c2c(NCCCN(C)C3CCCCC3)c(=O)c2=O)CC1	-7%	i
84	CCCCn1c(N)c(N(CCC(C)C)C(=O)CCN2C(=O)C3CC=CCC3C2=O)c(=O)[nH]c1=O (configuration not stated)	-7%	-5%
85	O=C(c1cccc(S(=O)(=O)N2CCc3ccccc32)c1)N1CCN(CCO)CC1	-7%	-13%
86	CCOc1ccc(C(O)c2nccn2C)cc1 (configuration not stated)	-4%	-6%
87	COc1ccccc1NC(=O)c1c(N=Cc2cccc([N+](=O)[O-])c2)cnn1C	-11%	-4%
88	Cn1nc(C(=O)NNC(=O)c2ccccc2F)c2ccccc2c1=O	-13%	5%
89	COc1cc(O)c(C(C)=O)c(CC(=O)O)c1	-1%	8%
90	O=C(Cn1nc(-c2ccccc2)ccc1=O)N1CCC2(CC1)OCCO2	12%	i
91	O=C(NCc1ccc(F)cc1)C(=O)NCC1OCCN1C(=O)c1ccc(Cl)cc1 (configuration not stated)	u	-8%
92	Cc1noc(NS(=O)(=O)c2ccc(NC(=O)Nc3ccc(Cl)c(Cl)c3)cc2)c1C	-1%	-15%
93	COc1ccc(C(=O)N/C(=C/c2cccs2)C(=O)NC(C)(C)C)cc1OC	-5%	i
94	Cc1cccc(-n2cc(CN3CCCN(C=O)CC3)c(-c3cccc(F)c3)n2)c1	-11%	-2%
95	Cc1ccc(Nc2nc(Cl)nc(NC3CCCCC3)n2)cc1	u	u
96	CC1CCN(CCC(=O)Nc2ccc(Cl)cc2)CC1	-13%	-5%
97	CSc1nnc(Cn2c(=O)sc3ccccc32)n1CCc1ccccc1	-8%	-5%
98	Cc1cccc(CCNC(=O)CCc2nc(-c3ccccc3F)no2)c1	-25%	u
99	NC(=O)NOCc1c(F)cccc1Cl	0%	-1%
100	CN(C)CCCN(Cc1ccc2c(c1)OCO2)C(=O)NC1CCCCC1	-7%	-23%
101	O=C(O)C1C2CCC(CC2)C1C(=O)O (configuration not stated)	-2%	i
102	O=C(Nc1nnc(SCc2cccc3ccccc23)s1)C1COc2ccccc2O1 (configuration not stated)	0%	i
103	COC(=O)Cc1[nH]c(Cl)nc1C(N)=O	-9%	2%
104	O=C(CSc1nnc(-c2cccnc2)o1)Nc1ccccn1	-9%	x
105	Cc1c(C(=O)Nc2ccc(S(=O)(=O)Nc3ncccn3)cc2)oc2ccc(Cl)cc12	4%	-10%
106	Cc1oc(/C=N/NS(=O)(=O)c2ccccc2)cc1Br	-17%	-25%
107	COc1ccc(-c2oc3c(c2-c2cnc(OC)nc2)C(O)CC3)cc1 (configuration not stated)	-13%	-12%
108	CNCC[C@H](Oc1cccc2ccccc12)c1cccs1	-24%&-28%	-2%&-22%
109	CSc1ccccc1C(=O)NCCOc1ccccc1C	4%	i
110	N#Cc1c(SCC(=O)O)nc(-c2ccccc2)c2c1CCCC2	-15%	-24%[1.46 µM]

Outcome played no part in choosing rows. About 0.82% of those tested had a hit in this group.
